Source: PubChem
gsp ag – agonists of gsp mutant (McCune-Albright syndrome) | gsp mutant cells, cAMP HTRF, 30 min; control for the full effect not named in the record | 340,000 tested, 0.13% active | Potency, µM (series often up to 76.9 µM), for the others: at the top dose activation (cAMP increase), hits mostly activators; active = well fitted activation curve with a large enough effect; inconclusive = small, poorly fitted or top-dose-only effect, or another doubt; inactive = no such curve, though single readings can be large or run the other way; cell line not stated here;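 further: phosphodiesterase inhibitor Ro 20-1724 added with compounds to block cAMP breakdown; potency means the concentration at half of the fitted maximal effect; nearly all actives have a fitted effect of over 60% in size; about a fifth of the inactives were tested at one dose only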
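Cells in DMEM/10% FBS with G418 were pretreated with compounds in DMSO plus […] (300 uM stock) for 30 min at 37C. cAMP was measured by HTRF (cAMP-d2 plus anti-cAMP antibody-K) after 30 min at room temperature.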
Sfp inh – blocks B. subtilis Sfp PPTase activity; Q9F4F7; Biochemical Sfp PPTase activity, qHTS; Potency, µM, inactives show max response, negative = inhibition, most hits filed as inhibitors; 310,000 tested, 3.5% active; AID 1490; active means well fitted inhibition curve with a large enough effect; inconclusive means small, poorly fitted or top-dose-only effect, or another doubt; inactive means no such curve, though single readings can be large or run the other way;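 further: the enzyme is Sfp with the accession as filed and its product quenches rhodamine fluorescence; potency means the concentration at half of the fitted maximal effect; 0% = enzyme reaction without inhibitor and -100% = no enzyme wells; top concentration of the series not given in the record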
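Compounds were incubated with enzyme (final 15 nM) for 15 min at room temperature before substrate addition started the reaction. Fluorescence at 525 nm excitation, 598 nm emission was recorded immediately and after 30 minutes.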
ClpP mod – qHTS Assay for Activators of ClpP | ATP-dependent Clp protease proteolytic subunit (Bacillus subtilis (strain 168)), P80244 | purified B. subtilis ClpP, FRET peptide cleavage, 20 min | Potency, µM (titrated, usually from 57.5 µM), inactives show top-dose activity change, negative = active | 340,000 tested, 1.9% active | AID 651965, 2013; active = well fitted falling curve with a large enough effect; inconclusive = small, poorly fitted or top-dose-only effect; inactive = no such curve, though single readings can be large or run the other way; further: potency means the concentration at half of the fitted maximal effect; the source files actives as falling curves though it sought activators and does not explain the sign; nearly all actives have a fitted effect of over 65% in size; many hits overshoot -100%
Target sequence (P80244 whole entry, looked up): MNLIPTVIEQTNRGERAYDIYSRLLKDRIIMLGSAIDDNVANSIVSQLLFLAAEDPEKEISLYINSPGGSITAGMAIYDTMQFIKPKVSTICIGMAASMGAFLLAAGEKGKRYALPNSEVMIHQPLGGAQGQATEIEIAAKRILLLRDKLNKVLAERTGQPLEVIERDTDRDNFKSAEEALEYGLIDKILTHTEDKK
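FRET quenching reversal measured ClpP activation: 10 microg/mL B. subtilis ClpP at pH 8 with the FRET-FV decapeptide, read at 430 nm after 320 nm excitation. The 20-min minus 0-min signal was scaled between DMSO/no-enzyme wells and ADEP (5.8 microM final).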
gsp antagonist – gsp mutant antagonism. gsp-mutant cells, cAMP HTRF, 30 min; control for the full effect not named in the record. Potency, µM (highest dose often 76.9 µM), inactives show at the top dose activity change, negative = inhibition, hits mostly inhibitors. 340,000 tested, 0.4% active. AID 624288; active = falling curve of any shape with a large fitted effect; inconclusive = falling curve, mostly with a smaller effect; inactive = flat or rising curve; cell line not stated here;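 further: intracellular cAMP measured with PDE inhibitor Ro 20-1724 present during compound exposure; potency means the concentration at half of the fitted maximal effect; on the % scale 0 is the no-effect control and ±100 the full control effect; nearly all actives have a fitted effect of over 65% in size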
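HTRF cAMP measurement after 30 min RT detection following 30 min, 37C compound treatment alongside […] (added as 300 uM solution) in G418-selected cells seeded at 2000/well and grown 16–24 h.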
Menin MLL FP FL – displaces fluorescein MLL peptide from human menin; 290,000 tested, under 10 active; AID 1766; FP activity change, % at 61.4 µM; Fluorescence polarization, fluorescein-MLL peptide displacement from menin; inconclusive = falling polarisation curve, or a change in total fluorescence; inactive = total fluorescence flat and polarisation flat or rising; no compound was filed as active; the % refers to the polarisation; negative = inhibition;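 further: % of control where 0% means no effect; inhibitors lower the polarisation; unlabelled MLL peptide was the positive control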
TRPML1 blocker – human mucolipin-1 channel inhibition; TRPML1-inducible cells, Ca2+ dye fluorescence, FDSS; stronger effect = lower value; inhibition of EC80 agonist-evoked calcium signal; activity change, negative = inhibition, % (concentration not given with the values); 390,000 tested, 0.02% active; AID 624415; in the data active means activity change below about -50%; inconclusive means about -30% to -50%; inactive means above about -30%;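 further: stimulus is agonist 54-4 at its EC80 concentration; on the % scale 0 is the no-effect control and ±100 the full control effect; compound concentration not given in the record; the text of the record puts the active cut at -80%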
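Calcium fluorescence in TRPML1-DL cells induced overnight with Tet: a 110 s read after compound pin addition, then a 110 s antagonist read after challenge with 54-4 at 4 uM final (EC80).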
TRPV1 PAM – enhances activation of the human vanilloid receptor TRPV1 | potentiation, % at 8.33 µM | TRPV1-expressing cells, Fluo-8 calcium influx, capsaicin EC20 potentiation; host cell line not named in the record; control for the full effect not named in the record | Q8NER1 | AID 540277 | 320,000 tested, 0.02% active; active means potentiation above 80%; inconclusive means 30% to 80%; inactive means below 30%; further: 0% is about no effect
Target sequence (Q8NER1 whole entry, looked up): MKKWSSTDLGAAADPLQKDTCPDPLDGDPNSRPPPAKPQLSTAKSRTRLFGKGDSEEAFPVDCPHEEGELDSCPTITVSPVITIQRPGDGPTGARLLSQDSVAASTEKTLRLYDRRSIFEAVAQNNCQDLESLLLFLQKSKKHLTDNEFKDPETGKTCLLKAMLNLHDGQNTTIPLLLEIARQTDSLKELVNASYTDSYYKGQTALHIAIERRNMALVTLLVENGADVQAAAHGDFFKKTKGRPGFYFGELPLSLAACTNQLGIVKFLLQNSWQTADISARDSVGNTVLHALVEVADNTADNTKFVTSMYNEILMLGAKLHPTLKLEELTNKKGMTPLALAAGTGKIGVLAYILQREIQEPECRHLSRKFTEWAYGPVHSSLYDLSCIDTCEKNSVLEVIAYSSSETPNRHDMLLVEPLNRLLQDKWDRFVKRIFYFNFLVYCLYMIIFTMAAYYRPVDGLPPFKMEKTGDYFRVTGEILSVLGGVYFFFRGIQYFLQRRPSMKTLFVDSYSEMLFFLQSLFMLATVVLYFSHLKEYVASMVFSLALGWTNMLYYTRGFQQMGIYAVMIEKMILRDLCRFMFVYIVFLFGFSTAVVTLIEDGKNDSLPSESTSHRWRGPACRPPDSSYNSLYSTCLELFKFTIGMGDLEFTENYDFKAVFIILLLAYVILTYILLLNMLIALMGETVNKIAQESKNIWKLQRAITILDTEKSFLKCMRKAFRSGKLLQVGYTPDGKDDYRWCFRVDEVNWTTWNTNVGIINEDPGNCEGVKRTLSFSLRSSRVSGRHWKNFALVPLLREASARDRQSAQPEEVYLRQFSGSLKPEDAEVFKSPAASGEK
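Cells expressing TRPV1 were dye-loaded with Fluo-8 and read kinetically: 10 s baseline, 3 min after compound (agonist portion), then 2 min after EC20 capsaicin (allosteric enhancer portion). Calcium-bound dye fluorescence at 480/520 nm.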
The depositor's hits bear a star; [ ] = remark or other dose.

For Cc1ccc(C)c(NC(=S)NCc2cccn2C)c1 the results were Sfp inh 16%, Menin MLL FP FL -1.4 and TRPV1 PAM 2.
`Cc1nn(CC(=O)NCCCN2CCN(C)CC2)c(=O)c2cc(-c3ccccc3)nn12` gave gsp ag 8%, Sfp inh 9%, ClpP mod -1.4%, gsp antagonist 12%, Menin MLL FP FL -0.6, TRPML1 blocker 56 and TRPV1 PAM 6.
`COc1ccc(S(=O)(=O)N2CCOCC2)cc1NC(=O)c1cc(=O)[nH]c2ccccc12` gave gsp ag inconclusive, ClpP mod -1.2%, gsp antagonist 0%, TRPML1 blocker 8 and TRPV1 PAM 6.
Screening CC(C)(C)N1C(=O)[C@H]2[C@@H](c3ccc(Br)cc3)N3C(=O)N(c4ccccc4)C(=O)[C@@]3(C)[C@H]2C1=O returned gsp ag -14%, Sfp inh 16%, ClpP mod 1.5%, gsp antagonist 2%, Menin MLL FP FL -2.7, TRPML1 blocker 5 and TRPV1 PAM -12.
For COc1ccc(CCn2c(N3CCN(C)CC3)nc3c2c(=O)[nH]c(=O)n3C)cc1 the results were gsp ag inconclusive, Sfp inh 12%, ClpP mod 2.0%, gsp antagonist -2%, Menin MLL FP FL 3.0 and TRPML1 blocker 4.
Screening COc1cccc(NC(=S)N2CCC(C(=O)c3ccc(F)cc3)CC2)c1 returned gsp ag -7%, gsp antagonist -3% and TRPML1 blocker 13.
Screening C[C@H](CO)N1C[C@H](C)[C@H](CN(C)C(=O)Nc2ccc(C(F)(F)F)cc2)Oc2c(NC(=O)c3ccncc3)cccc2C1=O returned ClpP mod 1.8%, gsp antagonist -23% and TRPML1 blocker -3.
O=C(NC1CCCc2ccccc21)c1cccc(Br)c1 (centres undefined) was read as gsp ag -59%[inhibitor], Sfp inh 6%, ClpP mod -3.8%, gsp antagonist -15%, Menin MLL FP FL 5.9, TRPML1 blocker 0 and TRPV1 PAM 0.
Screening Cc1ccc(S(=O)(=O)N2N=C3CCCCC3C2(O)C(F)(F)F)cc1 (centres undefined) returned gsp ag -7%[15.4 µM], Sfp inh 17%, gsp antagonist 10%, Menin MLL FP FL 2.8, TRPML1 blocker 11 and TRPV1 PAM -1.
`CN(C)c1oc(-c2ccco2)nc1C#N` gave gsp ag inconclusive, Sfp inh 10%, ClpP mod 5.4%, gsp antagonist 19%, Menin MLL FP FL 0.6, TRPML1 blocker 6 and TRPV1 PAM 4.
Screening CCOC(=O)N1Cc2cc3ccccc3nc2C1 returned gsp ag -3%, ClpP mod -1.3% and TRPML1 blocker -7.
COc1ccc(C(N)=O)cc1NC(=O)CC(O)(C(F)(F)F)C(F)(F)F was read as gsp ag inconclusive, Sfp inh 10%, ClpP mod 0.0%, gsp antagonist 1%, Menin MLL FP FL -1.7, TRPML1 blocker -10 and TRPV1 PAM -4.
For COc1ccc(C2=NOC(COC(=O)c3ccc4ccccc4n3)C2)cc1 (centres undefined) the results were gsp ag 0%, Sfp inh -1%, ClpP mod 4.4%, gsp antagonist 15%, TRPML1 blocker -6 and TRPV1 PAM 27.
For C#CCSc1nnc(-c2ccccc2)c(=O)[nH]1 the results were gsp ag inconclusive, Sfp inh -6%, ClpP mod -0.9%, gsp antagonist -16%, Menin MLL FP FL -0.4, TRPML1 blocker 7 and TRPV1 PAM 2.
`O=Cc1ccc(-c2ccc(Cl)cc2Cl)[nH]1` gave gsp ag 2%, Sfp inh 2%, ClpP mod -0.1%, gsp antagonist -1%, Menin MLL FP FL -0.4, TRPML1 blocker -5 and TRPV1 PAM -15.
Screening CN(C)C(=S)SCC(=O)NCc1ccc(F)cc1 returned gsp ag -1%[15.4 µM], Sfp inh 2%, gsp antagonist 5%, Menin MLL FP FL -0.4, TRPML1 blocker -9 and TRPV1 PAM -7.
For CCCCc1cc(=O)oc2cc(C)cc(OCC(=O)N3CCC(C(=O)O)CC3)c12 the results were Sfp inh 6%, ClpP mod 5.4%, gsp antagonist -3%, Menin MLL FP FL -3.1 and TRPV1 PAM 1.
For COc1cc(C(=O)Oc2ccc3c(c2)OCC3=O)cc(OC)c1OC the results were gsp ag -41%[inhibitor], Sfp inh 11%, ClpP mod 0.9%, gsp antagonist 13%, Menin MLL FP FL 3.5, TRPML1 blocker 0 and TRPV1 PAM 7.
`CCC(C(=O)n1cccc1C#N)c1ccccc1C` (centres undefined) gave gsp ag -13%, ClpP mod -0.4%, gsp antagonist 1%, TRPML1 blocker 2 and TRPV1 PAM 3.
`CCNc1nc2ccccc2[nH]1` gave gsp ag -22%, Sfp inh -12%, ClpP mod 1.8%, gsp antagonist -1%, Menin MLL FP FL -0.1, TRPML1 blocker -19 and TRPV1 PAM -9.
Screening FC(F)(F)c1cccc(NC(=S)N2CCN(c3ccccc3)CC2)c1 returned gsp ag 13%, Sfp inh 8%, ClpP mod -4.1%, gsp antagonist 8%, Menin MLL FP FL 3.0, TRPML1 blocker -3 and TRPV1 PAM -2.
CC1=NN(C(=O)c2ccccc2Cl)C(O)(c2ccccc2)C1 (centres undefined) was read as gsp ag 1%, Sfp inh 9%, gsp antagonist 11%, Menin MLL FP FL -2.3, TRPML1 blocker 3 and TRPV1 PAM -5.
Cc1noc(C)c1NC(=O)N(C)C[C@@H]1OCc2cn(nn2)CCCC(=O)N([C@H](C)CO)C[C@H]1C was read as gsp ag inconclusive, ClpP mod -0.3% and TRPML1 blocker -16.
`CCN(CC(=O)Nc1ccc(NC(C)=O)cc1)C(=O)C1CCCC1` gave gsp ag -3%, ClpP mod -1.1%, gsp antagonist 15%, TRPML1 blocker 18 and TRPV1 PAM 2.
For CC(OC(=O)c1cc(=O)[nH]c2ccccc12)C(=O)Nc1ccc(Cl)cn1 (centres undefined) the results were gsp ag -23%, ClpP mod -3.4%, gsp antagonist 21%, TRPML1 blocker 12 and TRPV1 PAM 10.
Cc1cc(C(=O)Nc2ccc(S(=O)(=O)Nc3onc(C)c3C)cc2)c(C)o1 was read as gsp ag inconclusive, Sfp inh -5%, ClpP mod 0.5%, gsp antagonist 1%, Menin MLL FP FL 3.8, TRPML1 blocker -1 and TRPV1 PAM 2.
For CCOc1ccc(CCN2C(=O)c3cccnc3C2=O)cc1OCC the results were gsp ag 18%, Sfp inh -16%, gsp antagonist 0%, Menin MLL FP FL -3.9, TRPML1 blocker 17 and TRPV1 PAM 2.
`C[C@H](NC(=O)c1nc[nH]c1C(=O)N1CCNCC1)C(=O)OC(C)(C)C` gave ClpP mod -1.5%, gsp antagonist 14%, TRPML1 blocker 35 and TRPV1 PAM 2.
For Cn1c(=O)c2c(nc(N/N=C/c3cccs3)n2Cc2ccc(Br)cc2)n(C)c1=O the results were gsp ag -47%[inhibitor], Sfp inh -6%, ClpP mod 9.7%, gsp antagonist 29%, TRPML1 blocker -1 and TRPV1 PAM 7.
CCCCCNC(=O)c1ccc2c(=O)n(CC3CCCO3)c(=S)[nH]c2c1 (centres undefined) was read as gsp ag 9%[15.4 µM], Sfp inh 1%, ClpP mod -3.4%, gsp antagonist -14%, Menin MLL FP FL 0.8, TRPML1 blocker 6 and TRPV1 PAM 15.
Screening O=C(CSCCO)Nc1ccccc1 returned gsp ag -19%, Sfp inh 0%, ClpP mod 1.5%, gsp antagonist -9%, Menin MLL FP FL 0.1, TRPML1 blocker -11 and TRPV1 PAM 29.
Screening CCOC(=O)C1=C(c2ccccc2)NC(=O)NC1c1cc(OC)c(OC)cc1OC (centres undefined) returned gsp ag 19%[15.4 µM], Sfp inh 9%, gsp antagonist 0%, Menin MLL FP FL 4.0, TRPML1 blocker 1 and TRPV1 PAM 19.
O=C(c1ccc(NS(=O)(=O)c2ccccc2)cc1)N1CCOCC1 was read as gsp ag -8%[15.4 µM], Sfp inh 9%, gsp antagonist -4%, Menin MLL FP FL 0.4, TRPML1 blocker -5 and TRPV1 PAM -1.
For COc1cccc(CC(=O)OCC(=O)N(C)CC(=O)Nc2ccc(F)cc2)c1 the results were gsp ag -17%, ClpP mod -3.2%, gsp antagonist 6%, TRPML1 blocker 2 and TRPV1 PAM 0.
Screening CC(C)NC(=O)CSc1nc2[nH]ncc2c(=O)[nH]1 returned gsp ag 1%, Sfp inh 0%, ClpP mod -0.9%, gsp antagonist 21%, Menin MLL FP FL 5.9, TRPML1 blocker -3 and TRPV1 PAM -13.
C#CCOCCOCCOCCNc1nc(N2CCN(C(=O)[C@H](CCC(=O)O)n3cc(C(N)CC(C)C)nn3)CC2)nc(N2CCN(C(=O)[C@H](Cc3cc4ccccc4[nH]3)n3cc(C(N)CC(C)C)nn3)CC2)n1 (some centres undefined) was read as Sfp inh 17%, ClpP mod -1.1%, gsp antagonist 11%, Menin MLL FP FL -2.5, TRPML1 blocker 38 and TRPV1 PAM 6.
O=C(COc1ccc(Cl)cc1)NCc1nnc(SCC(=O)NC2CCCC2)o1 was read as gsp ag -4%[15.4 µM], Sfp inh -11%, ClpP mod -2.6%, gsp antagonist 2%, Menin MLL FP FL -1.3, TRPML1 blocker -1 and TRPV1 PAM -3.
For O=C(CCc1ccccc1)N1N=C(c2ccncc2)CC1(O)C(F)(F)F (centres undefined) the results were gsp ag 0%, Sfp inh 13%, gsp antagonist 0%, Menin MLL FP FL -1.6, TRPML1 blocker 7 and TRPV1 PAM 15.

Structural class, the compounds so far with bromine.
Screening CC(C)(C)N1C(=O)[C@H]2[C@@H](c3ccc(Br)cc3)N3C(=O)N(c4ccccc4)C(=O)[C@@]3(C)[C@H]2C1=O returned gsp ag -14%, Sfp inh 16%, ClpP mod 1.5%, gsp antagonist 2%, Menin MLL FP FL -2.7, TRPML1 blocker 5 and TRPV1 PAM -12.
O=C(NC1CCCc2ccccc21)c1cccc(Br)c1 (centres undefined) was read as gsp ag -59%[inhibitor], Sfp inh 6%, ClpP mod -3.8%, gsp antagonist -15%, Menin MLL FP FL 5.9, TRPML1 blocker 0 and TRPV1 PAM 0.
For Cn1c(=O)c2c(nc(N/N=C/c3cccs3)n2Cc2ccc(Br)cc2)n(C)c1=O the results were gsp ag -47%[inhibitor], Sfp inh -6%, ClpP mod 9.7%, gsp antagonist 29%, TRPML1 blocker -1 and TRPV1 PAM 7.
